# CBX7 inh: CBX7 chromodomain binding inhibitors, primary screen, biochemical, AlphaScreen | Chromobox protein homolog 7 (Homo sapiens), O95931 | AlphaScreen His6-CBX7 / biotin-H3K27me3 peptide binding; active compounds read low | normalised signal (fraction of DMSO) (test concentration not listed) | 66,000 tested, 1.1% active; in the data active = normalised signal below about 0.5;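 note: 100 nL library stock added to about 20 µL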
# Target sequence (O95931 whole entry, looked up): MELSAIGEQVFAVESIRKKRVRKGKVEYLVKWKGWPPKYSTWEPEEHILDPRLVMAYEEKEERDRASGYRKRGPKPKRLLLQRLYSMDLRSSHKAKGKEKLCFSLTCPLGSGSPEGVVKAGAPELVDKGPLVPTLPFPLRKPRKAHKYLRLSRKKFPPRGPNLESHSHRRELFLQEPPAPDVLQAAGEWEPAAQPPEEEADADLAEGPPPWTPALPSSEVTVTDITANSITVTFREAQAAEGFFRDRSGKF
# CBX7 inh z-score: second read-out of CBX7 inh, no call of its own (marks repeat the call); z-score; measured here: z-score of CBX7 signal; some inactives read as strong as hits; reference of the scale not given here;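 same signal on another scale; lower means less binding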
# Starred values were filed as active, the others as inactive. Only part of the results is shown (hit frequency here may not be typical).
canonical_smiles	CBX7 inh	CBX7 inh z-score
Cc1cccc(-c2nc(CN3CCCC(C(=O)NC4CCCc5ccccc54)C3)c(C)o2)c1 (stereo not drawn)	0.92	-1.5
Cc1ccc2c(c1)c1c3n2CCN(C(=O)CN2CCN(C(=O)c4ccco4)CC2)C3CCC1 (stereo not drawn)	0.9	-2.8
O=C(CCc1c[nH]c2ccccc12)N1CCN(C(c2ccc(F)cc2)c2ccc(F)cc2)CC1	0.72	-2
CCOC(=O)c1cnc2c(C)cccc2c1Nc1cccc(C(=O)O)c1	0.98	-0.26
CCc1ccc(NS(=O)(=O)c2ccc3[nH]cc(C(=O)N4CCc5ccccc5C4)c(=O)c3c2)cc1	0.55	-6.2
O=C(Nc1c2c(nn1-c1ccc(F)cc1)CS(=O)(=O)C2)c1cccc(F)c1	0.98	-0.25
CC(CCc1ccccc1)NC(=O)C1C2C=CC3(CN(Cc4cccs4)C(=O)C13)O2 (stereo not drawn)	1	1.4
Cc1ccc(CCNC(=O)c2nc(-c3cccc(C)c3)oc2C)cc1	0.88	-0.94
Cc1noc(NS(=O)(=O)c2ccc(NC(=O)c3cnc4sccn4c3=O)cc2)c1C	0.91	-1
Cc1cccc(NC(=O)CNC(=O)Cn2ccc3ccccc3c2=O)n1	1	1.7
CCOc1ccc(N(CC)C(=O)Cc2c(C(=O)O)[nH]c3ccccc23)cc1	1	0.48
CCC1=Nc2cc(C(=O)NCCCOC(C)C)ccc2Sc2ccc(Br)cc21	0.98	-0.78
CCc1cccc(NC(=O)c2cc3c(-c4ccc(OC)c(OC)c4)nn(C)c3s2)c1	0.94	-0.75
Clc1cc(Br)ccc1OCc1nc(-c2ccncc2)no1	1	0.28
COc1cccc(Nc2ncnc3c2cnn3-c2ccc(C)cc2C)c1	0.96	-0.92
CCN1C(=O)C(O)(CC(=O)c2ccc(Cl)cc2)c2ccccc21 (stereo not drawn)	0.99	-0.19
CCOc1cc2c(cc1OCC)C1C(C(=O)NCc3cccc(OC)c3)c3ccccc3C(=O)N1CC2 (stereo not drawn)	1	0.38
O=C(C1CCC1)N1CCc2cc(S(=O)(=O)NC3CCCCC3)ccc21	0.98	-0.6
CCC1CCCCN1CCCNC(=O)c1ccc2c(c1)N(Cc1c(F)cccc1Cl)C(=O)CS2 (stereo not drawn)	1.1	0.6
COc1ccc(N2CCN(CCCNS(=O)(=O)c3ccc4c(c3)CCN4C(=O)C3CC3)CC2)cc1	0.76	-2.7
CCOc1ccc(NC(=O)c2nn(-c3ccc(OC)cc3OC)c(=O)c3ccccc23)cc1	0.96	-1
CC(C)(C)Cc1nnc(NC(=O)CSCc2ccccc2)s1	0.96	-1.3
COc1ccc(Cn2c(=O)c3cccnc3n(CC(=O)Nc3cc(Cl)ccc3C)c2=O)cc1	0.96	-0.66
CC(=O)N1CCC(N(C(=O)Nc2ccccc2)C2CCCCCC2)CC1	1	0.61
O=C(NC1CCCCC1)C1CCC(CNS(=O)(=O)c2cccc3cccnc23)CC1 (stereo not drawn)	0.97	-0.75

# Reformatted: 4 of the compounds above
# Values run as follows: CBX7 inh, CBX7 inh z-score
> O=C(Nc1c2c(nn1-c1ccc(F)cc1)CS(=O)(=O)C2)c1cccc(F)c1
    0.98, -0.25
> CC(CCc1ccccc1)NC(=O)C1C2C=CC3(CN(Cc4cccs4)C(=O)C13)O2 (stereo not drawn)
    1, 1.4
> Cc1ccc(CCNC(=O)c2nc(-c3cccc(C)c3)oc2C)cc1
    0.88, -0.94
> Cc1noc(NS(=O)(=O)c2ccc(NC(=O)c3cnc4sccn4c3=O)cc2)c1C
    0.91, -1

# Going on with the list.
canonical_smiles	CBX7 inh	CBX7 inh z-score
CCCC(O)(CCN1CCOCC1)c1ccc(OC)cc1 (stereo not drawn)	1.1	1.6
Cc1cc(C(F)(F)F)n2nc(C)c(-c3ccc(Cl)cc3)c2n1	0.99	-0.15
O=C(CCc1[nH]c2ccccc2c1Sc1ccccc1)NCCO	1.1	0.7
COc1cccc2sc(NC(=O)c3ccc(S(=O)(=O)N4CCCCCC4)cc3)nc12	1	0.36
CCOC(=O)N1CCN(C(=O)C2=CCN(S(=O)(=O)c3ccc(Br)cc3)CC2)CC1	1.1	2
CCOc1ccc(Br)cc1C1CC(=O)Nc2c1ccc(C)c2C (stereo not drawn)	0.98	-0.23
COc1ccccc1N1CCN(C(c2cccs2)C(C)NS(=O)(=O)c2ccc(C)cc2)CC1 (stereo not drawn)	0.72	-3.7
COc1cccc(-c2nc(CS(=O)(=O)CC(=O)NCCN3CCOCC3)c(C)o2)c1	0.99	-0.15
CC(C)Oc1ccc(C(=O)Nc2ccc(S(=O)(=O)N3CCCCC3c3cccnc3)cc2)cc1 (stereo not drawn)	0.74	-4
CCOc1ccc(C2c3[nH]c4ccccc4c3CCN2C(=O)c2ccccc2)cc1 (stereo not drawn)	0.69	-2.2
COc1ccc(Nc2oc(COc3ccccc3F)nc2C#N)cc1	1.1	0.99
Cc1ccc(OCc2nc(-c3ccccc3)no2)c(C)c1	2.3	1.5
O=C1CN(Cc2ccccc2)C(c2ccccc2)c2cc(Br)ccc2N1 (stereo not drawn)	1	0.39
CCCNC(=O)c1cc2nc(-c3ccc(Cl)c(Cl)c3)cc(C(F)(F)F)n2n1	1.1	0.58
CCCCN(CC)CCNC(=O)c1cnc(Nc2ccccc2OC)c2ccccc12	1.3	4.7
CCC1CCCCN1S(=O)(=O)c1ccc2[nH]c(=O)cc(C(=O)NCc3ccc4c(c3)OCO4)c2c1 (stereo not drawn)	0.93	-0.75
CCOC(=O)N1CCN(C(=O)C2CCN(C(=O)c3cc4sccc4n3CC)CC2)CC1	0.92	-0.36
C/C(=C\c1ccccc1)c1nc2ccc(Cl)cn2c1Nc1c(C)cccc1C	1.1	0.092
O=c1c2ccccc2nc(/C=C/c2ccccc2O)n1CCCO	1	1.3
COc1ccccc1NC(=O)c1cn(-c2ccc(Cl)cc2)c(=O)c2ccccc12	0.94	-2
Cc1nc2cc(-c3ccc(Cl)cc3)nn2c(C)c1CCC(=O)Nc1ccc(CN2CCOCC2)cc1	1.1	2.6
CCC(=O)N1CCc2cc(S(=O)(=O)NC(C(=O)NCc3ccc(C)cc3)C(C)C)ccc21 (stereo not drawn)	1	0.56
COC(CNC(=O)CN1C(=O)CC(C)(C)S(=O)(=O)c2ccccc21)OC	1.2	2.1
CC(Oc1ccc(F)cc1)C(=O)N(Cc1ccc(Cl)cc1)C1CCS(=O)(=O)C1 (stereo not drawn)	1.1	0.11
O=C(NCc1ccc(Cl)cc1)C1CCCN(S(=O)(=O)c2cnc[nH]2)C1 (stereo not drawn)	1.1	3.6
CCCNC(=O)c1ccc(NC2=NC3CS(=O)(=O)CC3S2)cc1 (stereo not drawn)	1.2	3.7
CC1CCC(NC(=O)C2c3cccn3CC(=O)N2CC2CCCO2)CC1 (stereo not drawn)	1	-0.013
CCOc1ccc(CNC(=O)c2cn(C3CCCC3)c(=O)c3c2c2ccccc2n3C)cc1	0.94	-1.4
Cc1ccc(CCN2CC(C(=O)NCCCN3CCOCC3)CC2=O)cc1 (stereo not drawn)	1	-0.014
CCOc1cc2sc(N3CCC(C(=O)O)CC3)nc2cc1Br	0.52	-3.7
Cc1ccccc1N1CCN(c2nc(-c3ccc(Cl)cc3)c3ccccc3n2)CC1	2.3	21
COc1ccc(-c2nc(CS(=O)(=O)CC(=O)NCc3ccc(F)cc3)c(C)o2)cc1	1	0.83
COc1ccc2nc(NC(=O)C3CCN(S(=O)(=O)c4cnc[nH]4)CC3)sc2c1	0.99	-0.31
CCN(C(=O)CCc1nc(-c2ccc(OC)cc2)no1)c1cc(OC)ccc1OC	0.77	-4.8
Cc1nc2ccc(S(=O)(=O)NC(CC(C)C)C(=O)NC3CCCCC3)cc2s1 (stereo not drawn)	1	0.46
COc1ccc(-c2cn(-c3ccc(C)c(F)c3)c(=O)[nH]2)cc1	1	0.52
CCc1cccc(NC(=O)Cn2ncc3c2-c2ccccc2OC3)c1	0.94	-1.7
Cc1cc(-c2csc(Nc3ncccc3C)n2)ccc1F	0.99	-0.1
CN(CCNC(=O)c1csc2c1CCCCC2)C1CCCCC1	0.96	-1.3
O=C(Nc1ccc(F)c(Cl)c1)c1cc(-c2ccco2)on1	0.93	-1.8
CC(C)c1ccc(NC(=O)c2cn(-c3ccc(Cl)cc3)c(=O)c3ccccc23)cc1	0.92	-2.6
CCN1CCN(C(=O)c2cnc(Nc3ccc(OC)cc3)c3ccccc23)CC1	1	1.3
CCOC(=O)CNC(=O)c1cc2c(n(-c3ccc(OC)cc3)c1=O)CC(C)(C)CC2=O	1.1	1.6
CCC(Cc1ccccc1)NC(=O)c1ccc2nc(N3CCOCC3)sc2c1 (stereo not drawn)	1.2	2.1
COc1ccc(-n2nnc3c(=O)n(CC(=O)Nc4ccc(C(F)(F)F)cc4)cnc32)cc1	0.93	-1.3
COc1ccc(NC(=O)c2nn3c(c2Cl)NC(c2cccs2)CC3C(F)(F)F)cc1OC (stereo not drawn)	1.1	1.2
CCC(C)NC(=O)C1CCN(C(=O)c2cc3sccc3n2Cc2ccc(Cl)cc2)CC1 (stereo not drawn)	1.1	2.4
CC(NC(=O)c1cccc(F)c1)C(c1cccs1)N1CCOCC1 (stereo not drawn)	0.98	-0.37
COc1cccc(-c2nc(C(=O)NCc3ccc(F)cc3)c(C)o2)c1	1.1	1.4
Cc1ccc(Nc2ncc(C(=O)NCc3ccccn3)c3ccccc23)cc1Cl	1.1	3.8

# (cont.)
canonical_smiles	CBX7 inh	CBX7 inh z-score
COc1cc(-n2c(C)nc3cc(C(=O)NCCc4ccccc4)ccc32)cc(OC)c1OC	1	1.2
Nc1ccc(-c2cc(C(=O)O)c3ccccc3n2)cc1	0.95	-0.58
CC1(c2ccccc2)CC(O)CC(c2ccccc2)N1 (stereo not drawn)	1	0.49
COc1cccc(NC(=O)Cn2cnc3sc(C)c(C)c3c2=O)c1	1.2	2.2
CC(=O)N1CCc2cc(S(=O)(=O)Nc3cccc(C(F)(F)F)c3)ccc21	0.97	-0.98
CC(C(=O)NCc1ccc2c(c1)OCO2)C1Sc2ccccc2NC1=O (stereo not drawn)	0.95	-1
CC1NC(=O)CC(c2ccccc2)NC1c1ccccc1 (stereo not drawn)	1	0.67
COc1ccc(C(=O)Nc2nnc(-c3cccc(C)c3)o2)cc1OC	0.018*	-11*
COc1ccc(Nc2cc(C(=O)NCc3ccc(C)cc3)c3ccccc3n2)cc1	0.92	-0.94
Cc1ccc(C(C(=O)NC2CCCCC2)N(C)c2ccccc2)cc1 (stereo not drawn)	0.92	-2
Cc1ccc(Cl)cc1N1CCN(C(=O)c2ccc3c(c2)NC(=O)c2ccccc2N3)CC1	0.68	-2.6
Cc1ccc(CCNC(=O)C2(NS(=O)(=O)c3cccc4cccnc34)CCCCC2)cc1	1	0.71
CC(=O)N1c2cc(N)ccc2NC(=O)CC1C (stereo not drawn)	1	0.047
O=C(c1cc(-c2ccc(Cl)cc2)on1)N1CCCCC1	1	0.56
CCOC(=O)N1CCC(Nc2c(N3CCc4ccccc43)c(=O)c2=O)CC1	1.1	2.4
COc1ccc(NC(=O)CSc2nnc(-c3c[nH]c4ccccc34)n2C)c(OC)c1	1	0.62
Cc1cc2cc(CCNC(=O)COc3ccc(Cl)cc3Cl)c(=O)[nH]c2cc1C	0.96	-0.47
CCOC(=O)c1cc(-c2ccccc2)n(CCCN2CCOCC2)c1C	0.59	-2.7
Clc1ccc2nc(NCc3ccccc3)nc(-c3ccccc3)c2c1	2.2	20
Nc1cccc(-c2nc3ccccc3o2)c1	0.92	-1.2
CCN(CC)CCNC(=O)CN1C(=O)COc2ccc(S(=O)(=O)N3CCOCC3)cc21	0.96	-1
Cc1noc(/C=C/c2cccs2)c1S(=O)(=O)N1CCC(C(=O)NC2CCCCC2)CC1	0.96	-0.093
O=C(CN1C(=O)CSc2ccc(S(=O)(=O)N3CCCCC3)cc21)NCc1ccc(F)cc1	0.96	-1.1
CC(=O)c1ccc(N2C(=O)C3C(C2=O)C2C=CC3C23CC3)cc1 (stereo not drawn)	0.94	-0.76
COc1ccc(COCC(O)CN2CCOCC2)cc1OC (stereo not drawn)	1.1	2.5
CSc1cccc(NC(=O)CCc2nc(-c3ccc(C)cc3)no2)c1	1.1	2.3
O=C(CCc1nnc2ccc(N3CCOCC3)nn12)NCc1ccccc1Cl	1.2	3.6
COc1ccc(C2CC(=O)N(CC(=O)Nc3ccc(F)cc3)c3ccccc3S2)cc1OC (stereo not drawn)	0.8	-2.9
CCOC(=O)CNC(=O)c1ccc(C#CC2(O)CCCCC2)cc1	0.95	-0.7
COc1ccc(NC(=O)CSc2nccn2-c2cc(C)cc(C)c2)cc1	0.83	-0.16
CCN(C(=O)CCc1nc(-c2ccc(C)cc2)no1)c1ccccc1F	1.1	0.7
Brc1ccc2ncnc(NCc3cccnc3)c2c1	1.1	1

# Of the compounds above, these contain a CF3 group:
canonical_smiles	CBX7 inh	CBX7 inh z-score
Cc1cc(C(F)(F)F)n2nc(C)c(-c3ccc(Cl)cc3)c2n1	0.99	-0.15
CCCNC(=O)c1cc2nc(-c3ccc(Cl)c(Cl)c3)cc(C(F)(F)F)n2n1	1.1	0.58
COc1ccc(-n2nnc3c(=O)n(CC(=O)Nc4ccc(C(F)(F)F)cc4)cnc32)cc1	0.93	-1.3
COc1ccc(NC(=O)c2nn3c(c2Cl)NC(c2cccs2)CC3C(F)(F)F)cc1OC (stereo not drawn)	1.1	1.2
CC(=O)N1CCc2cc(S(=O)(=O)Nc3cccc(C(F)(F)F)c3)ccc21	0.97	-0.98

# Bioassay records as filed in PubChem.
